Assay outcomes from PubChem BioAssay.
Rango-impB inh = prevents formation of the Rango-importin beta complex | Q14974 | Rango CFP/YFP FRET sensor + importin beta, 45 min | Potency, µM (top dose mostly 92.2 µM), for inactives: top-dose inhibition of complex formation | hit rate 0.031% among 340,000 | AID 540263; active = rising FRET ratio curve, often small or poorly fitted; inconclusive = mostly compound fluorescence or quenching in the first reads; inactive = flat curves in all reads;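 note: potency is the fitted concentration of half-maximal effect; 0% = DMSO wells and 100% = buffer wells lacking importin beta; nearly all actives have a fitted effect of over 15% in size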
Target sequence (Q14974 whole entry, looked up): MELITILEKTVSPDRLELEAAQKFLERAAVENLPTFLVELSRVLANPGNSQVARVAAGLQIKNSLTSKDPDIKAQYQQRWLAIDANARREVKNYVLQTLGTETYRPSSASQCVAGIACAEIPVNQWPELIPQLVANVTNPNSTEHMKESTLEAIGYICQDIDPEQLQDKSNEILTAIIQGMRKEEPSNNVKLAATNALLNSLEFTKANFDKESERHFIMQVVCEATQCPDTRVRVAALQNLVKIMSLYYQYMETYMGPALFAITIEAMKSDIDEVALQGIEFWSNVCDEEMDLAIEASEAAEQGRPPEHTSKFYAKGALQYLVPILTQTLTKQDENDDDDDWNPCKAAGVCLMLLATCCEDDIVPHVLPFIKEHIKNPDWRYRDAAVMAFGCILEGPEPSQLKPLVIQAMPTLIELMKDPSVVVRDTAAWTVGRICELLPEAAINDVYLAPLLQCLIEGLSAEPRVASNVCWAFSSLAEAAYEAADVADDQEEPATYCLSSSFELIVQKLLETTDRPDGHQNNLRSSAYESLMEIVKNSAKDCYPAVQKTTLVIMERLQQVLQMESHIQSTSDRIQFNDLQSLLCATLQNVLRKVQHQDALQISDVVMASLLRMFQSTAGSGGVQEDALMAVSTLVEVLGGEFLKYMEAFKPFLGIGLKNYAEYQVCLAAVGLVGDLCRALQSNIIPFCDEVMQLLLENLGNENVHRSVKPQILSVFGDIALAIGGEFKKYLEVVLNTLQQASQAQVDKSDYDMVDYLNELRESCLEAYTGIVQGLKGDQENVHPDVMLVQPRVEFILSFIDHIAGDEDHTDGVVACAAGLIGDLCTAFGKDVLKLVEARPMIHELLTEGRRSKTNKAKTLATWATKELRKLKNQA
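Inhibition scored from the CFP 486 nm/YFP 530 nm FRET ratio 45 min after adding 0.125 microM importin beta to 50 nM Rango biosensor preincubated 5 min with compound (room temperature, PBS with DTT, Tween-20, BSA). No-importin wells as positive control.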
miR-21 FLuc = miR-21 reporter, rising signal. 340,000 tested, under 10 active. HeLa miR-21 FLuc reporter, luciferase, 48 h. Potency, µM (doses to about 38.3 µM), for the others: at the top dose reporter change, positive = more light; active = well fitted rising curve with a large enough effect; inconclusive = small, poorly fitted or top-dose-only effect; inactive = no such curve, though single readings can be large or run the other way;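 note: % of control where 0% means no effect; miR-21 action dims this reporter so a rising signal means less miR-21 action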
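Using DMEM plus 10% FBS, HeLa miR-21-FLuc cells are incubated with test compounds (final up to about 40uM) for 48 hours; firefly luciferase signal is then imaged following reagent-mediated lysis.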
GLA inh pH 4.5 = alpha-galactosidase A (human) inhibition, pH 4.5; P06280; purified enzyme, 4-MU-alpha-Gal fluorescence, pH 4.5; activity change, negative = inhibition, % at 105 µM; 230,000 tested, under 10 active; inconclusive = small, poorly fitted or top-dose-only inhibition, or a rising curve; inactive = flat fitted curve, though single readings scatter; no compound was filed as active;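 note: 0% = full activity with enzyme and -100% = basal without enzyme; dose as in the result columns while the protocol names 77 µM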
Rango dissoc inh = inhibition of RanGTP-driven Rango-importin beta dissociation; O95149+P62826; Biochemical FRET Rango-importin beta, RanGTP-induced dissociation; Potency, µM (doses to about 46.1 µM), inactives show at the top dose activity change, negative = inhibition; hit rate 0.071% among 340,000; AID 540253; active means falling FRET ratio curve, often poorly fitted, with flat reads before Ran was added; inconclusive means other falling curves, or compound fluorescence or quenching; inactive means flat or rising ratio curve;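 note: potency is the fitted concentration of half-maximal effect; % of control where 0% means no effect; nearly all actives have a fitted effect of over 45% in size; -100% = wells without RanGTP and RCC1; the record marks most hits as doubtful in a second field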
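Quantitative HTS using a FRET biosensor: 0.1 uM Rango, 0.25 uM importin beta, 0.6 uM Ran, 2 mM GTP, 0.2 uM RCC1 final, PBS with DTT, Tween-20 and BSA. Post-read taken 45 min after Ran addition.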
An asterisk follows results filed as active; ? = inconclusive; . = not tested or not shown; [ ] = another dose, or the depositor's remark. Not all compounds are listed; the hit share may differ from the screen's.

Rango-impB inh	miR-21 FLuc	GLA inh pH 4.5	Rango dissoc inh	compound
-3.0%	-4%	.	-10%	COCCc1nc2ccc(C(=O)N3CCCCC3COC)cc2o1 (stereo not drawn)
1.6%	-53%	3	8%	Cc1cccc(-c2noc(CSc3ccccc3)n2)c1
2.8%	-6%	6	3%	CC(=O)Nc1ccc(Nc2cc(C)nc3c(-c4ccc(Cl)cc4)c(C)nn23)cc1
2.1%	-26%	.	2%	COc1ccc(C(=O)CNc2cccc(F)c2)cc1
1.1%	0%	0	-3%	CCOc1ccc(-n2cc(C(=O)N3CCN(C)CC3)c3cc(OC)c(OC)cc3c2=O)cc1
-4.0%	-19%	.	1%	Cc1cc(=O)n2c3ccccc3n(C)c2n1
3.1%	.	.	-3%	CSc1ncccc1C(=O)OCC(=O)Nc1nc(C)c(Cl)cc1Cl
7.6%	-31%	0	-3%	COc1cc(C(=O)Nc2nc3ccc(C)cc3s2)ccc1OCc1c(C)noc1C
-3.5%	-5%	?	-11%	Cc1ccc(S(=O)(=O)c2c(N)n(CCCN(C)C)c3nc4ccccc4nc23)cc1
-3.1%	-1%	.	-13%	COc1ccc(CNC(=O)CS(=O)(=O)Cc2nc(-c3ccc(OC)cc3)oc2C)cc1
-1.1%	-1%	.	0%	CC(C)(C)NC(=O)NC(=O)CN1CCN(S(=O)(=O)/C=C/c2ccccc2)CC1
-3.5%	.	.	-9%	CCOc1ccc(C(=O)NCC(=O)N2CCCCCCC2)cc1
1.4%	-2%	-10	-9%	CCOC(=O)C1=NNC(C(=O)c2ccccc2)C1c1ccc(Cl)cc1 (stereo not drawn)
-1.1%	-3%	-3	-6%	COC(=O)C1CCN(C(=O)C2CCCCC2)CC1
-2.4%	5%	-20	-14%	Clc1ccc(Cc2ccc(SCc3ccccc3)nn2)c(Cl)c1
0.4%	-10%	3	-17%	Cn1c(=O)oc2cc(S(=O)(=O)NCc3cccnc3)ccc21
0.4%	.	.	-11%	O=C(COc1ccc2c(c1)CCC2)Nc1ccccn1
2.3%	20%	-13	14%	Cc1ccccc1NC(NC(=O)c1cccs1)C(Cl)(Cl)Cl (stereo not drawn)
-0.9%	.	.	1%	c1ccc(C2OCCN2c2ccccc2)cc1 (stereo not drawn)
0.5%	5%	.	4%	Nc1cc(=O)[nH]c2nnc(SCC(=O)Nc3cccc4ccccc34)n12
0.5%	.	.	2%	O=C(COC(=O)CNC(=O)c1ccccc1Cl)Nc1cc(C(F)(F)F)ccc1Cl
-1.3%	2%	.	0%	COc1cccc(NC(=O)c2ccccc2Oc2ccccc2)c1
-0.7%	.	.	5%	CSc1ncccc1C(=O)OCC(=O)NCCCc1ccccc1
0.1%	-3%	.	-10%	COCCCNC(=O)CCN1N=C(c2ccccc2)CCC1=O
-3.7%	9%	-6	-9%	COc1cc(C(CCN2CCCC2)c2c(OC)cc(OC)c3c(-c4ccccc4)cc(=O)oc23)cc(OC)c1OC (stereo not drawn)
-2.2%	-5%	-4	6%	CCCCCCn1c(=O)c(F)cn(Cc2ccc(OC)c([N+](=O)[O-])c2)c1=O
-2.4%	-19%	.	-11%	COC(=O)c1ccccc1NC(=O)c1cc2ccccc2o1
3.3%	1%	1	-13%	Cc1cccc(C(=O)Nc2ccccc2C(=O)NCc2cccnc2)c1
1.8%	-8%	-7	-4%	COc1ccc(C(=O)N2CCC(C(=O)Nc3cccc(C)c3)CC2)cc1OC
5.3%	1%	6	19%	CCO[C@H]1OC(C(=O)N2CCN(C)CC2)=C[C@@H](c2ccc(Br)cc2)[C@@H]1CCCO
0.3%	5%	4[21.1 µM]	3%	Cc1c(NC(=S)Nc2cccc(Cl)c2)c(=O)n(-c2ccccc2)n1C
2.5%	-31%	-10	-19%	CCOC(=O)c1ccc(NC2c3ccccc3C(=O)N2c2cccnc2)cc1 (stereo not drawn)
-3.0%	.	.	-29%	CC(=O)c1c(C)[nH]c(C(=O)OCC(=O)N(C)c2c(N)n(Cc3ccccc3)c(=O)[nH]c2=O)c1C
-0.3%	.	.	-9%	COc1ccc(NC(=S)N2CCC(C(=O)c3ccc(Cl)cc3)CC2)cc1
-0.9%	-10%	4	15%	Cc1cc(C)nc(SCCC(=O)Nc2ccccc2Cl)n1
0.5%	-1%	.	19%	COc1ccc2c(c1OC)C(=O)N(c1ccc(OCc3ccccc3)cc1)C2=O

Ordered by value in GLA inh pH 4.5 (falling): 5 of the compounds above
Rango-impB inh	miR-21 FLuc	GLA inh pH 4.5	Rango dissoc inh	compound
2.8%	-6%	6	3%	CC(=O)Nc1ccc(Nc2cc(C)nc3c(-c4ccc(Cl)cc4)c(C)nn23)cc1
0.4%	-10%	3	-17%	Cn1c(=O)oc2cc(S(=O)(=O)NCc3cccnc3)ccc21
3.3%	1%	1	-13%	Cc1cccc(C(=O)Nc2ccccc2C(=O)NCc2cccnc2)c1
7.6%	-31%	0	-3%	COc1cc(C(=O)Nc2nc3ccc(C)cc3s2)ccc1OCc1c(C)noc1C
-3.7%	9%	-6	-9%	COc1cc(C(CCN2CCCC2)c2c(OC)cc(OC)c3c(-c4ccccc4)cc(=O)oc23)cc(OC)c1OC (stereo not drawn)

Additional records
Rango-impB inh	miR-21 FLuc	GLA inh pH 4.5	Rango dissoc inh	compound
-2.5%	1%	-9	4%	COC(=O)C1=C(C)N(C)C(C)=C(C(=O)OC)C1c1ccccc1C
2.3%	.	.	-7%	CC(=O)c1ccc(NC(=O)c2cnn3c(C(F)F)cc(C4CC4)nc23)cc1
-1.0%	-10%	8	-11%	COc1cc2c(cc1O)C(Cc1ccc(O)cc1)NCC2 (stereo not drawn)
0.1%	-3%	-21	10%	O=C(COc1ccc(Cl)cc1Cl)NC(=S)Nc1ccc(CN2CCOCC2)cc1
0.3%	-10%	9	-13%	COc1ccc(/C=C/C(=O)Nc2ccccc2C(F)(F)F)cc1OC
4.6%	1%	-7	-17%	NC(=O)C1CCN(C(=O)C2CCN(S(=O)(=O)c3ccccc3)CC2)CC1
3.3%	1%	.	16%	CCCNC(=O)CSc1n[nH]c(=O)n1CCc1ccccc1
2.2%	.	.	-7%	O=C(c1ccccc1)n1c(=O)cc[nH]c1=O
-1.1%	.	.	-13%	CCC1=CC(c2ccccc2)n2ncnc2N1 (stereo not drawn)
-2.3%	?	.	-13%	c1ccc(CCNCCOc2ccccc2)cc1
-1.1%	-1%	4	0%	CCOCCn1c(CN2CCN(C)CC2)nc2c1c(=O)n(C)c(=O)n2C
-2.0%	-38%	3	-7%	CCCCCCSc1nsc(NC(C)=O)n1
-0.6%	-2%	3	0%	CCCCCN=CC1=C(O)CC(c2ccccc2)CC1=O (stereo not drawn)
-1.6%	.	.	1%	COc1ccc(C(CNC(=O)COc2ccccc2C)N2CCOCC2)cc1 (stereo not drawn)
-4.8%	.	.	1%	O=C(CSc1nccn(-c2ccc(F)c(F)c2)c1=O)NC1CCCC1
-0.2%	-2%	3	15%	COc1ccc(C(=O)Nc2ccc(-c3cn4ccsc4n3)cc2)cc1S(=O)(=O)N1CCOCC1
-0.5%	3%	-15	32%	CCn1c(=O)cc(OCC(=O)Nc2ccc(OC)c(OC)c2)c2ccccc21
1.3%	-4%	.	-13%	COC(=O)C1=C(C)N(C)C(=O)NC1c1c(O)ccc2ccccc12 (stereo not drawn)
-3.7%	.	.	-11%	CC1CCCCN1C(=S)NC(=O)c1ccccc1 (stereo not drawn)
-3.0%	-5%	.	-23%	Clc1cccc(Cl)c1CN1CCN(c2ncccn2)CC1
-6.1%	-1%	5	1%	COCC(=O)Nc1ccc(F)cc1
-0.1%	0%	.	6%	CN1CCN(C(=O)c2cc([N+](=O)[O-])cc([N+](=O)[O-])c2)CC1
-2.8%	.	.	-7%	COc1cc(NC(=O)c2ccccc2[N+](=O)[O-])ccc1NC(=O)c1cc2ccccc2o1
-1.8%	-4%	3	0%	CSc1nc2ccc(Nc3nc(N4CCOCC4)nc(N4CCOCC4)n3)cc2s1
?	.	.	-19%	CC1=CC(c2ccc(Cl)cc2)n2ncnc2N1 (stereo not drawn)
-2.4%	-56%	5	10%	O=C(CC(=O)c1ccccc1)Nc1cccnc1Cl
-2.7%	-38%	1	0%	CCCc1ccc(OCc2ccc(C(=O)O)o2)c(OC)c1
3.6%	-6%	-8	-13%	CCS(=O)(=O)N1CCN(c2ccc([N+](=O)[O-])c(NC(C)c3ccccc3)c2)CC1 (stereo not drawn)
0.6%	-4%	3	-14%	COC(=O)c1c(NC(=O)COc2ncnc3ccccc23)sc(C)c1C
5.7%	4%	.	-4%	CCCCN(CC)CCNC(=O)c1cc2c(=O)[nH]c3ccc(C)cc3c2s1
-1.8%	.	.	-1%	NC[C@H](Cc1ccccc1)NCCCCC1CCCCC1
1.4%	2%	.	-11%	O=C1CCC(C(=O)N2CCCCCCC2)CN1Cc1cccc(C(F)(F)F)c1 (stereo not drawn)
-1.6%	-1%	.	11%	Cc1cccc(Nc2nc(Cl)ncc2F)c1C
-4.0%	-1%	-11	4%	C/C(CCc1ccc2c(c1)OCO2)=N\N=C(/N)SC1CC(=O)N(c2ccccc2F)C1=O (stereo not drawn)
3.4%	9%	.	1%	CC1Sc2ccc(S(=O)(=O)NCc3ccccc3)cc2NC1=O (stereo not drawn)
?	15%	-6	?	O=c1[nH]c(/C=C2\C=Nc3ccccc32)c(O)n1Cc1ccccc1F
-1.6%	10%	.	-6%	O=C(Nc1ccc(S(=O)(=O)N2CCOCC2)cc1)c1cc(S(=O)(=O)N2CCOCC2)ccc1Cl
?	?	-3	-27%	N=c1n(CC(=O)c2ccc(Br)s2)c2ccccc2n1Cc1ccccc1
-0.6%	0%	.	4%	O=C(COc1ccccc1O)NCCN1CCOCC1
-4.4%	-18%	-9	-4%	COc1cc(/C=N/NC(=O)c2ccccc2O)ccc1OC(=O)CC1SC(=O)NC1=O (stereo not drawn)
2.7%	4%	-1	2%	COc1ccccc1NC(=O)NCCc1c[nH]c2ccccc12
-0.4%	-3%	9	12%	COC(=O)CN(c1ccc2c(c1)OCCO2)S(=O)(=O)c1ccccc1
0.2%	-5%	1	4%	O=C(NCCCn1ccnc1)c1ccc(S(=O)(=O)N2CCCCCC2)cc1
0.5%	12%	.	3%	Cc1ccc(CNC(=O)c2ccc(N3CCC4(CC3)CC(c3ccccc3)=NO4)c([N+](=O)[O-])c2)cc1
-3.0%	-3%	9	-10%	COc1cc(/C=N/NC(N)=S)ccc1OCC(=O)Nc1ccc(C)c(C)c1
-1.1%	-2%	4	1%	S=c1[nH]nc(-c2ccccc2)n1Cc1ccccc1
5.5%	14%	-8	-8%	O=C(CC1(O)C(=O)N(C/C=C/c2ccccc2)c2ccccc21)c1ccccn1 (stereo not drawn)
-0.3%	-1%	6	11%	CC(C)CNC(=O)COC(=O)/C=C/c1ccccc1[N+](=O)[O-]
3.5%	4%	6	-14%	Cc1cccc(N2CCN(CC(=O)Nc3nccs3)CC2)c1C
0.4%	5%	3	-1%	Cc1ccc(S(=O)(=O)N(CC#N)CC#N)cc1

Arranged by molecular weight (lowest first): 3 of the compounds above
Rango-impB inh	miR-21 FLuc	GLA inh pH 4.5	Rango dissoc inh	compound
-0.6%	0%	.	4%	O=C(COc1ccccc1O)NCCN1CCOCC1
5.5%	14%	-8	-8%	O=C(CC1(O)C(=O)N(C/C=C/c2ccccc2)c2ccccc21)c1ccccn1 (stereo not drawn)
-4.4%	-18%	-9	-4%	COc1cc(/C=N/NC(=O)c2ccccc2O)ccc1OC(=O)CC1SC(=O)NC1=O (stereo not drawn)
